# PINK1 modulator: PINK1 expression modulation. PINK1 immunofluorescence, high-content cytometry, 24 h. hit rate 0.2% among 410,000. Potency, µM (titrated, usually from 76.6 µM), inactives show at the top dose activation (PINK1 increase), usual class: activators; active = well fitted activation curve with a large enough effect; inconclusive = small, poorly fitted or top-dose-only effect; inactive = flat fitted curve, though single readings scatter; cell line not stated here;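 also: potency is read from the fitted curve at half-maximal effect; % of control where 0% means no effect; nearly all actives have a fitted effect of over 65% in size; a mitochondrial uncoupler was the plate control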
#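 Stable cell line treated 24 h with compounds at 5 concentrations (CCCP controls), then fixed and immunostained for PINK1 plus nuclear and cell stains; PINK1 immunofluorescence quantified by laser-scanning microplate cytometry.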
# D2 PAM: potentiates the human D2 dopamine receptor allosterically | P14416 | hit rate 0.23% among 360,000 | potentiation, % (no concentration beside the values) | DiscoveRx D2 beta-arrestin cells, luminescence, 90 min; 100% = 57 uM dopamine signal; active = potentiation of 50% or more; inconclusive = 30% to 50%; inactive = 30% or less;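 also: compound concentration not given in the record; tested on top of an EC20 dose of dopamine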
# Target sequence (P14416 whole entry, looked up): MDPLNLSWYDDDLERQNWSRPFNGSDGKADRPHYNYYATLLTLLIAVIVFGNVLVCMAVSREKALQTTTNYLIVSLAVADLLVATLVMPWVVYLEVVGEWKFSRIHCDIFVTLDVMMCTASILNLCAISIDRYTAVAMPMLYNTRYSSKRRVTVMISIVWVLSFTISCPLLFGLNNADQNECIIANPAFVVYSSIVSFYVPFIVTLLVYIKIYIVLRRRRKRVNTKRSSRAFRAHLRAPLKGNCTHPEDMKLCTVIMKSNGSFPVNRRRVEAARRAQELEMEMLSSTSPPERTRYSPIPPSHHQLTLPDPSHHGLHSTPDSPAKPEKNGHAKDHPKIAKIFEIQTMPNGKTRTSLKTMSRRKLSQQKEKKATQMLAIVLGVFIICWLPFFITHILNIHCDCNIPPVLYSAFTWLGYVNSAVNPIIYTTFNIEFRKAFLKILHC
#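 D2 cells co-treated with compound plus 50 nM dopamine (EC20) for 90 min at 37 deg C to detect potentiation. Beta-arrestin recruitment was read as enzyme-fragment luminescence after 1 h at ambient temperature. Full response was set by 57 uM dopamine.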
# Six1-Eya2 inh: Six1/Eya2 interaction inhibition. hit rate 0.56% among 360,000. AID 651725. Q15475+O00167. activity change, % (no concentration beside the values). AlphaScreen GST-Six1/His-Eya2 binding, biochemical; active compounds read low; control for the full effect not named in the record; in the data active = activity change below about -65%; inconclusive = about -30% to -65%; inactive = above about -30%; also: % is scaled to controls: 0 for no effect and ±100 for the full control effect
#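 Six1/Eya2 binding was read as AlphaScreen signal after compounds were pinned into GST-Six1 plus His-tagged Eya2 (5X stock 250/500 nM) in pH 8.0 Tris/NaCl/TCEP buffer, beads added, then incubated 1 h, 37 C, dark.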
# D2 agonist: human D2 receptor agonism in beta-arrestin assay; activation, % (test concentration not listed); DiscoveRx PathHunter D2 beta-arrestin, luminescence, 90 min; 100% = 57 uM dopamine signal; P14416; AID 624465; hit rate 0.084% among 360,000; in the data active = activation above about 40%; inconclusive = about 15% to 40%; inactive = below about 15%; also: compound concentration not given in the record; the text of the record calls up to 30% inactive
#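 DiscoveRx PathHunter D2 beta-arrestin cells (2,100/well) attached overnight, then compound-stimulated 90 min at 37 C in HBSS/10 mM HEPES/0.1% Tween-20 buffer; beta-galactosidase complementation read by luminescence after 1 h at ambient temperature. Dopamine 57 uM final (EC100) as control.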
# TRPML1 agonist: agonists of human TRPML1 channel; Q9GZU1; TRPML1-expressing cells, Ca2+ dye fluorescence, FDSS; host cell line not named in the record; reference of the full effect not given here; activation, % (test concentration not listed); hit rate 0.12% among 410,000; in the data active = activation above about 50%; inconclusive = about 30% to 50%; inactive = below about 30%; also: 0% is about no effect; the text of the record puts the active cut at 80%
# Target sequence (Q9GZU1 whole entry, looked up): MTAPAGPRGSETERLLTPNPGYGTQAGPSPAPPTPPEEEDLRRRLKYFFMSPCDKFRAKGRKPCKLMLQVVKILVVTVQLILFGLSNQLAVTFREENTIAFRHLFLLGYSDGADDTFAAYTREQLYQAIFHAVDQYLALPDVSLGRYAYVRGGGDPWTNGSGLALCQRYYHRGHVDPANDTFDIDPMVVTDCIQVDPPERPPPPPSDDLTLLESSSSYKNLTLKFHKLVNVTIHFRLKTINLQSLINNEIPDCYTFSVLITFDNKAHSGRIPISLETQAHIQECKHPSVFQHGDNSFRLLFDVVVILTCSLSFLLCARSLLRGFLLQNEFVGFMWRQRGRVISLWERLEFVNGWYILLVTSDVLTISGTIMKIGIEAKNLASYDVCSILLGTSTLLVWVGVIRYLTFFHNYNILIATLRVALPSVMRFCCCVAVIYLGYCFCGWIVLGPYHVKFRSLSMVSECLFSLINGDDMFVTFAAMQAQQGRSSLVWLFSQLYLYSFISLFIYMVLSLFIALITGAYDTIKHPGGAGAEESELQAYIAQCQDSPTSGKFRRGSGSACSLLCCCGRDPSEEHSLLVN
#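 Kinetic FDSS Ca2+ read in Tet-induced TRPML1-DL cells (ABD Ca8 dye plus quencher, 45-90 min RT loading): baseline, then compound, then 110 s agonist window; EC80 agonist 54-4 at 4uM final added afterwards for a 110 s antagonist window.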
# TRPML1 blocker: human mucolipin-1 channel inhibition; AID 624415; activity change, negative = inhibition, % (concentration not given with the values); TRPML1-inducible cells, Ca2+ dye fluorescence, FDSS; active compounds read low; inhibition of EC80 agonist-evoked calcium signal; hit rate 0.02% among 390,000; Q9GZU1; in the data active means activity change below about -50%; inconclusive means about -30% to -50%; inactive means above about -30%;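 also: stimulus is agonist 54-4 at its EC80 concentration; % is scaled to controls: 0 for no effect and ±100 for the full control effect; the text of the record puts the active cut at -80%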
#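 TRPML1-DL cells, Tet-induced overnight (~16 h, 37 °C) at 1,500 cells/well, were loaded with Ca8 no-wash dye plus quencher for 45-90 min at room temperature. Compounds were pinned during FDSS kinetic reading; agonist 54-4 at EC80 (4 uM final) then added.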
# * = called active by the depositor; ? = inconclusive; · = not tested or not shown; [ ] = another dose, or the depositor's remark.
# Each structure is followed by: PINK1 modulator, D2 PAM, Six1-Eya2 inh, D2 agonist, TRPML1 agonist, TRPML1 blocker
- O=C(CCCN1C(=O)/C(=C/c2cccs2)SC1=S)Nc1cc([N+](=O)[O-])ccc1O
  -1.3%, -5.2, -5.1, 0.0, -0.9, 9.2
- CC(c1cccs1)N(Cc1ccco1)C(=S)Nc1ccc(F)c(Cl)c1 (configuration not stated)
  1.6%, -5.6, 5.7, -5.7, -0.6, 0.9
- O=S(=O)(Nc1ccc(O)c(Sc2nc3ccccc3s2)c1)c1ccc(Cl)cc1
  -1.5%, ?, -0.3, 10.7, 0.1, -7.1
- Cc1cc(C)c(CN2CCC(n3nccc3NC(=O)C3CCOC3)CC2)cc1C (configuration not stated)
  -1.1%, -16.1, -1.3, -0.3, 0.0, -4.0
- O=C(N(Cc1ccccc1)c1ccccn1)C12CC3CC(CC(C3)C1)C2
  2.0%, -2.1, 7.9, 7.6, 0.3, 22.5
- CCc1ccc(NC(=O)CSc2nc3[nH]ncc3c(=O)[nH]2)cc1
  2.2%, -6.6, 9.7, -0.7, 0.5, -12.0
- CCCOc1ccc(CNC(=O)CN2C(=O)c3cccnc3Oc3ccc(C)cc32)cc1
  0.9%, ·, ·, ·, 2.0, 0.7
- Cc1noc(-c2ccccc2OC(=O)c2ccccc2)n1
  -1.3%, -11.1, 11.9, 1.4, 3.0, 6.5
- O=C(CSc1nnnn1-c1ccc2c(c1)OCCO2)c1cccc2c1OCCO2
  5.2%[38.3 µM], -5.3, -0.4, -1.9, -0.3, 26.8
- CCc1ccccc1N(CC(=O)NCc1ccco1)C(=O)CCC(=O)Nc1ccccn1
  -0.1%, -8.5, -7.4, -1.0, 1.3, -4.5
- CCC(=O)c1cn(CC(=O)O)c2ccccc12
  1.2%, -3.8, 7.4, -1.2, 0.0, 0.7
- CC(/C=C/c1ccccc1F)=N\NC(=O)C(C)C
  -0.9%, -3.1, 3.2, -2.8, 0.7, -0.7
- CCOC(=O)c1nnn(-c2ccc([N+](=O)[O-])cc2[N+](=O)[O-])c1C
  1.0%, 10.3, -5.8, 10.2, -0.5, -7.5
- CCOC(=O)CC1=C(C(=O)OCC)C(c2cccs2)C(C#N)=C(N)O1 (configuration not stated)
  -1.6%, 15.0, 3.9, 1.7, 1.7, -11.2
- Cc1onc(-c2ccccc2)c1C(=O)Nc1ccon1
  -10.2%[38.3 µM], -2.3, 5.0, 1.9, 0.7, -21.1
- O=C(COc1ccccc1F)Nc1ccccc1C(=O)NC1CC1
  0.9%, 1.3, 3.7, 4.1, 0.9, -2.3
- CCCNC(=O)C1(C)CCN(C(=O)Cc2ccc(OC)c(OC)c2)C1 (configuration not stated)
  0.0%, -1.2, -0.2, -3.5, -0.8, ·
- Cc1ccc(-c2cnc(NC(=O)c3cccc(Br)c3)s2)c(C)c1
  ·, 7.1, 4.4, 2.1, 1.1, 7.8
- Cc1ccc(C)c(C(C)NC(=O)c2ccncc2)c1 (configuration not stated)
  2.9%, 1.7, 11.3, 0.8, -1.3, -13.2
- O=C(O)c1nccnc1C(=O)Nc1ccc(Cl)cc1Cl
  -0.9%, -9.5, 8.3, -9.8, 1.9, 6.2

# Next section
# Each structure is followed by: PINK1 modulator, D2 PAM, Six1-Eya2 inh, D2 agonist, TRPML1 agonist, TRPML1 blocker
- CC(C)c1ccc(CN(C(=O)C2COc3ccccc3O2)C2CCS(=O)(=O)C2)cc1 (configuration not stated)
  0.3%[38.3 µM], 0.2, -2.0, -0.1, -0.5, 15.9
- O=C(c1cccc(Cl)c1)N1CCN(c2ccc(N3CCOCC3)nn2)CC1
  -1.7%, -0.8, 4.2, 5.3, 2.1, -6.7
- Cc1nn(C)c(Nc2ccc(Br)cc2)c1Br
  1.7%, -17.9, 4.8, 0.6, -0.8, 8.9
- O=C(Nc1cccc(C(=O)O)c1)/C(=C\c1ccco1)NC(=O)c1ccccc1Cl
  1.1%, -3.9, -26.5, -7.5, -1.1, 0.2
- COc1ccc(CN2CCCC(CO)(Cc3ccc(F)cc3)C2)cc1C (configuration not stated)
  5.4%, -2.7, -2.3, -4.5, 0.4, -1.3
- Cc1cc(C)c2c(=O)cc(CSc3nnc(COc4ccccc4C)n3C)[nH]c2c1
  3.5%, ·, ·, ·, 4.0, -4.4
- Cc1n[nH]c(=S)n(/N=C/c2cccc([N+](=O)[O-])c2)c1=O
  1.5%, -4.7, ?, 5.3, 0.3, 11.8
- N/C(=N\N=C\c1cccs1)SC1CC(=O)N(c2ccc(Br)cc2)C1=O (configuration not stated)
  -1.1%, -3.3, -4.4, 4.9, -0.4, -0.4
- Cc1cc(C)cc(NC(=O)CSc2nc(N)c(NC(=O)c3cccs3)c(=O)[nH]2)c1
  -0.6%, -9.4, -6.8, 0.7, -0.2, -3.6
- CC1Cc2ccccc2N1C(=O)c1ccc(F)c(S(=O)(=O)N2CCOCC2)c1 (configuration not stated)
  -0.7%, -6.5, 7.1, -0.2, -0.2, -2.9
- CCN(CC(=O)Nc1ccc2c(c1)OC(F)(F)O2)Cc1nc2ccccc2c(=O)[nH]1
  8.4%, -0.1, 0.5, -2.2, -0.1, -12.3
- COc1ccc(NC(=O)Cn2c(=O)n(-c3ccccc3)c(=O)c3sccc32)c(OC)c1
  5.1%, -5.3, 8.2, -2.4, -0.5, -15.5
- CC(Sc1nnc(-c2ccccc2F)n1C1CC1)C(=O)NCc1ccco1 (configuration not stated)
  1.9%, -4.4, -1.9, -6.2, -0.7, 15.2
- O=C(c1ccco1)N1CCn2cccc2C1c1ccccc1 (configuration not stated)
  4.8%, -4.8, -15.8, -0.1, 2.1, 11.8
- O=Cc1c(N2CCN(c3cccc(Cl)c3)CC2)nc2ccccn2c1=O
  -0.7%, -11.7, -12.6, -5.4, -1.2, -1.5
- CCc1ccc(CNC(=O)CCCn2c(=O)c3cccn3c3cccnc32)cc1
  3.3%, -6.3, -3.1, 4.8, -0.6, 3.6
- CCCOc1ccc(NC(=O)CC2C(=O)N(c3ccc(C)cc3)C(=O)N2Cc2cccc(OC)c2)cc1 (configuration not stated)
  3.7%, ·, ·, ·, 0.0, 6.6
- CCc1ccc(NC(=O)c2cc3c(=O)n(Cc4cccs4)ccc3nc2C)cc1
  0.9%, ·, ·, ·, 2.9, -25.5
- COc1ccccc1Cc1c(-c2ccc(C)cc2)nc2cc(C)c(Br)c(C)n12
  4.4%, ·, 3.9, ·, -0.7, ·
- O=C(CN1CCN(Cc2ccccc2)CC1)Nc1ccc(-n2cnnn2)cc1
  1.8%, -1.4, 5.9, -2.1, -0.2, -12.5

# (next part)
# Each structure is followed by: PINK1 modulator, D2 PAM, Six1-Eya2 inh, D2 agonist, TRPML1 agonist, TRPML1 blocker
- O=C(CNCC1(N2CCOCC2)CCCCC1)Nc1ccc(Cl)cc1
  0.9%, -3.4, 8.6, -3.0, 5.1, 2.4
- Cn1nc(-c2ccccc2)c(COC(=O)c2cccc(Cl)c2)c1S(=O)(=O)c1ccccc1
  7.6%, -6.7, -3.0, 0.7, -0.4, 9.3
- O=[N+]([O-])c1cccc(-c2ccc(C(=S)N3CCN(c4ccc(F)cc4)CC3)o2)c1
  1.1%, -6.7, -26.9, -4.1, 0.1, 9.5
- COc1ccc(CNC(=O)CN(c2cccc([N+](=O)[O-])c2)S(C)(=O)=O)cc1
  0.5%, -3.8, 1.2, -1.8, 0.5, 14.5
- OCCCn1c(-c2ccccc2)csc1=Nc1ccccc1
  1.0%, -4.7, -19.1, -5.2, 0.3, -6.7
- CC(=O)NC1CC2CCCC(C1)N2C(=O)Nc1ccc(Cl)cc1 (configuration not stated)
  0.0%, -6.7, -1.7, -4.4, -0.6, -5.0
- Cn1nc(C(F)(F)F)c(/C=N/OC(=O)c2ccc(Cl)cc2)c1Cl
  7.6%[38.3 µM], -3.5, 3.0, -1.0, 2.0, 1.6
- COC(=O)c1ccccc1NC(=O)c1ccc2c(c1)CCN2S(=O)(=O)c1ccc(Cl)cc1
  -1.2%, ·, ·, ·, 0.1, -8.9
- CS(=O)(=O)Cc1cc(Sc2ccccc2)nc(-c2ccncc2)n1
  0.2%, -4.6, 4.5, 1.6, 2.3, 34.1
- O=C(COC(=O)c1cc[n+]([O-])cc1)NC(=O)c1ccc(OC(F)F)cc1
  4.2%, -7.5, -2.5, -3.6, -0.5, -5.1
- C[C@@]12C(=O)Nc3ccccc3C(=O)N1[C@H]1c3cc(Br)ccc3OC[C@@H]1[C@@H]2c1ccccc1
  3.9%, -34.0, -8.7, -1.6, 0.8, -1.3
- N#CCC1c2ccccc2CCN1C(=O)Nc1cccc(Cl)c1 (configuration not stated)
  -2.7%[38.3 µM], -14.9, 3.1, 0.1, 0.4, -6.2
- N#CC(=Cc1ccc(-c2ccccc2)cc1)C(=O)c1ccccc1
  0.9%, -1.2, -1.2, 6.9, -1.2, ·
- COC(=O)CSc1cc(C)nc(SC)n1
  7.5%, -2.5, 2.0, -3.6, 0.6, 9.3
- Cc1cc(N2CCCC2)nc2ccc(NC(=S)NCCCN3CCC(C)CC3)cc12
  0.6%, -19.5, -5.3, -0.8, -0.3, -6.8
- CCCSc1nnc(NC(=O)Nc2ccccc2OC)s1
  6.5%, 0.6, 5.7, -1.5, 3.0, 22.3
- Cc1ccc(/C=C(\C#N)c2nc(-c3cc4c(ccc5ccccc54)oc3=O)cs2)cc1
  0.9%, ·, ·, ·, 0.0, -18.3
- Cc1ccc(NC(=O)Cn2nnc(-c3nc(-c4ccncc4)no3)c2N)cc1
  -0.5%, ·, ·, ·, -0.4, -11.7
- COc1cc(Nc2nc(-c3ccc(OC)c(OC)c3)nc3ccccc23)cc(OC)c1
  -1.2%, ·, ·, ·, 0.9, 0.7
- Cc1cc(SCC(=O)N/N=C/c2ccc(C(=O)O)cc2)nc2ccccc12
  2.7%, -0.9, -4.7, -2.7, 1.3, 2.8

# An excerpt from above, reduced to PINK1 modulator and D2 PAM:
SMILES	PINK1 modulator	D2 PAM
Cc1ccc(NC(=O)Cn2nnc(-c3nc(-c4ccncc4)no3)c2N)cc1	-0.5%	·
COc1cc(Nc2nc(-c3ccc(OC)c(OC)c3)nc3ccccc23)cc(OC)c1	-1.2%	·

# Following part.
# Each structure is followed by: PINK1 modulator, D2 PAM, Six1-Eya2 inh, D2 agonist, TRPML1 agonist, TRPML1 blocker
- COc1ccc2cc(C(=O)NCc3ccco3)c(=O)oc2c1
  1.9%, -3.1, -1.0, -3.2, -1.0, -6.9
- COc1ccc(OC)c(NC(=O)CCc2c[nH]c3ccccc23)c1
  1.4%, -1.9, -18.2, -1.8, 0.7, -1.6
- CCC(C(=O)Nc1ccc2c(c1)OCCO2)n1nnc2ccccc2c1=O (configuration not stated)
  1.3%, 11.1, 4.8, -2.0, -0.5, 30.8
- Cc1ccc(Cn2ccnc2SCC(=O)NCc2ccccc2Cl)cc1
  -4.9%, ·, ·, ·, 0.6, 5.2
- O=C(CSc1nc2ccccc2s1)NCc1cc([N+](=O)[O-])ccc1O
  0.8%, -20.4, ?, -3.8, 1.9, 12.5
- CC(C)[C@H](NC(=O)c1ccc(F)cc1)C(=O)NC1=NCCS1
  1.3%, -2.4, 1.8, -4.1, -1.0, 7.6

# High-throughput results (PubChem)
